Source: PubChem BioAssay
CBX7 AlphaScr – CBX7 chromodomain binding inhibitors, primary screen, biochemical, AlphaScreen; AID 1224903, 2016; hit rate 1.1% among 66,000; Chromobox protein homolog 7 (Homo sapiens), O95931; AlphaScreen His6-CBX7 / biotin-H3K27me3 peptide binding; stronger effect = lower value; normalised signal (fraction of DMSO) (concentration not given with the values); in the data active = normalised signal below about 0.5;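 also: 100 nL library stock added to about 20 µL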
Target sequence (O95931 whole entry, looked up): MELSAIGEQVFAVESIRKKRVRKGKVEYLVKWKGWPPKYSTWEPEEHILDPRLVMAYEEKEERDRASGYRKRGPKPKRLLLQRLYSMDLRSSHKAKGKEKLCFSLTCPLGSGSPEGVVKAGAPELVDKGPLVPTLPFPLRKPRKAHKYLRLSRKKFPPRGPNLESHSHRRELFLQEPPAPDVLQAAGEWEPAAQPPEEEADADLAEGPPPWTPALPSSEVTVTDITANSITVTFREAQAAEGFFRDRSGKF
CBX7 AlphaScr z-score – further read-out of CBX7 AlphaScr, marked with its call; z-score; measured here: z-score of CBX7 signal; some inactives read as strong as hits; reference of the scale not given here;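 same signal on another scale; lower means less binding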
* hit, by the source's call; & = joins results of further samples. Only part of the results is shown; count on the stated rates, not on these rows.

Values run as follows: CBX7 AlphaScr | CBX7 AlphaScr z-score
> COc1ccc(NC(=O)CN(c2ccc(C(C)C)cc2)S(=O)(=O)c2c(C)n[nH]c2C)cc1
  1.01 | 0.0992
> Cc1c(Cl)cccc1NCc1nnc2n1CCCCC2
  0.989 | -0.0112
> COc1ccccc1Nc1cc(C(=O)NCc2cccnc2)c2ccccc2n1
  1.16 | 2.44
> CCC(=O)Nc1cc(-c2nc3ccccc3o2)ccc1Cl
  1.03 | 0.91
> COc1ccc(-c2csc(NC(=O)c3ccc(S(=O)(=O)N4CCCC4)cc3)n2)c(OC)c1
  0.783 | -1.65
> CCCCOc1cccc(C(=O)N(Cc2ccccc2)C2CCS(=O)(=O)C2)c1 (configuration not stated)
  0.974 | -0.0257
> O=C(Nc1nnc(COc2ccccc2F)s1)c1ccccc1
  1.04 | 1.4
> NC(=O)c1cn(-c2ccccc2)nc1C12CC3CC(CC(C3)C1)C2
  0.95 | -0.796
> Cc1ccc(NC(=O)C(CC(C)C)NS(=O)(=O)c2ccc3nc(C)sc3c2)c(C)c1 (configuration not stated)
  1.05 | 2.11
> Cc1noc(C(=O)Nc2ccc(OC(F)(F)F)cc2)c1Cl
  1.1 | 3.41
> CCOc1cc2c(cc1OCC)C1C(C(=O)NCc3ccc(F)cc3)c3ccccc3C(=O)N1CC2 (configuration not stated)
  1.08 | 0.663
> CCOC(=O)c1ccc(NS(=O)(=O)c2cc(Br)cc3c2N(C(=O)C2CC2)CC3)cc1
  0.991 | -0.426
> CC1CCN(S(=O)(=O)c2ccc3c(c2)N(CC(=O)NCC(C)c2ccccc2)C(=O)CO3)CC1 (configuration not stated)
  1.02 | 0.798
> Cc1oc(-c2ccc(Cl)cc2)nc1CN1CCCC(C(=O)NC2CCCCCC2)C1 (configuration not stated)
  1.02 | 0.536
> Cc1cccc2nc(-c3ccccn3)c(Nc3ccc4c(c3)OCO4)n12
  0* | -21.6*
> CCC1=Nc2cc(C(=O)NCCCN3CCOCC3)ccc2Sc2ccc(C)cc21
  0.971 | -0.416
> COCCNC(=O)C1CCCN(c2nc3ccccc3[nH]2)C1 (configuration not stated)
  0.806 | -2.23
> CNC(=O)c1c(-c2ccccc2)oc2ccc(OC)cc12
  1.05 | 1.02
> CCc1ccc(NC(=O)N2CCC(N(C)CCC(C)C)CC2)cc1
  1.11 | 1.97
> CN1CCN(C2CC(=O)N(c3ccccc3)C2=O)CC1 (configuration not stated)
  0.926 | -0.478
> Cc1cc(C(=O)Nc2cc(C(F)(F)F)ccc2Cl)n(-c2ccccc2)n1
  1.09 | 2.31
> Cc1ccc(NC(=O)c2sc3ncn(Cc4ccccc4F)c(=O)c3c2C)cc1
  1.06 | 1.96
> Cc1ccc(Nc2nc(-c3cccnc3)cs2)c(C)c1
  0.882&0.564 | -1.49&-7.53
> COc1cc(C)c(S(=O)(=O)NCCc2c(C)[nH]c3ccc(F)cc23)cc1C
  0.949 | -0.49
> COc1ccc(Cl)cc1NC(=O)CSc1nnc(-c2c[nH]c3ccccc23)n1C
  1.01 | 0.133
> O=C(CN1C(=O)COc2ccc(S(=O)(=O)N3CCCC3)cc21)N1CCC2(CC1)OCCO2
  1.03 | 0.984
> O=C1c2ccccc2C(Nc2cc(Cl)cc(Cl)c2)N1c1cccnc1 (configuration not stated)
  0.963 | -0.497
> CN(Cc1ccccc1)C(=O)c1cc(-c2ccc(Cl)c(Cl)c2)on1
  1.16 | 4.54
> Cc1ccc(C(=O)N2CCN(c3nc(-c4ccccc4)c4cc(Br)ccc4n3)CC2)cc1
  1.18 | 0.699
> CCOc1ccc(Nc2cc(C)nc3nnnn23)cc1
  1.03 | 0.361
> CCOP(=O)(OCC)c1nc(-c2ccc(Cl)cc2Cl)oc1N1CCOCC1
  1.02 | 0.995
> COc1ccc(Cc2nc(-c3ccc(Cl)cc3)no2)cc1
  1.79 | 0.935
> O=C(CC1Oc2ccccc2NC1=O)Nc1ccccc1Br (configuration not stated)
  0.96 | -0.773
> CCCCNC(=O)N(C)c1nncnc1C(=O)NC
  1.02 | 0.412
> CC1(C)CC(=O)C2=C(C1)N(c1ccc(Cl)cc1)C(=O)CC2c1cccs1 (configuration not stated)
  1.16 | 1.51
> O=C(CN1C(=O)CSc2ccccc21)N1CCc2ccccc2C1
  0.921 | -0.621
> COc1ccc(Nc2cc(C(=O)NCCCN3CCCC(C)C3)c3ccccc3n2)cc1 (configuration not stated)
  0.951 | -0.0494
> CCOC(CNC(=O)c1ccc2c(c1)ncn2-c1ccc(F)cc1F)OCC
  0.849 | -1.9
> COc1ccccc1CNC(=O)C1=CCN(S(=O)(=O)c2ccc(Br)cc2)CC1
  1.02 | 0.836
> CC1CCCCC1NC(=O)Cn1nc(-c2ccccc2)ccc1=O (configuration not stated)
  1.04 | 0.674
> CCN(CC)S(=O)(=O)c1ccc2c(c1)c(=O)c(C(=O)NCc1ccc(C)cc1)cn2C
  1.13 | 1.91
> COc1ccc(-c2nc(CSCC(=O)NCCc3ccc(Cl)cc3)c(C)o2)cc1OC
  0.918 | -0.677
> CCCN1C(=O)Cn2cccc2C1C(=O)NC1CCCCC1C (configuration not stated)
  1.02 | 0.43
> COc1cccc(N2CCN(C(=O)c3cc4sccc4n3C)CC2)c1
  0.945 | -2.2
> Cc1ccc(Nc2nc(-c3ccc(Br)cc3)cs2)cc1
  0.718 | -4.45
> COc1ccccc1CNC(=O)CCC(=O)Nc1ccc2nc(N3CCN(C)CC3)cc(C)c2c1
  0.986 | -0.715
> CCN(CC)CCn1c(=N)n(CC(O)c2ccc(OC)c(OC)c2)c2ccccc21 (configuration not stated)
  1.02 | 1.2
> N#Cc1nc(COc2ccc(F)cc2)oc1NCCc1ccccc1
  0.564 | -7.92
> CC1CCCN(C(=O)CCNC(=O)Cn2ccc3ccccc3c2=O)C1 (configuration not stated)
  0.945 | -1.22
> Cn1c(C(=O)NCc2ccccc2)cc2sccc21
  1.05 | 0.183
> COc1ccccc1-c1c(C)nn2c(NC3CCCC3)cc(C)nc12
  1.18 | 1.07
> Cc1ccccc1OC1C(=O)N(c2ccc(F)cc2)C1c1ccc2c(c1)OCO2 (configuration not stated)
  0.912 | -0.691
> C#CCN1C(=O)C(O)(CC(=O)c2ccccc2O)c2ccccc21 (configuration not stated)
  0.966 | -0.901
> CCCC(=O)Nc1cc(-c2nn(C)c(=O)c3ccccc23)ccc1N1CCOCC1
  0.876 | -1.42
> COc1cccc(-c2nc(CSCC(=O)N3CCc4ccccc43)c(C)o2)c1
  1.4 | 4.48
> C=CCc1ccccc1OCC(O)Cn1c(CO)nc2ccccc21 (configuration not stated)
  0.601 | -0.829
> Cc1ccc(NC(=O)C2CCCN(c3nnc(-n4cccc4)s3)C2)cc1 (configuration not stated)
  0.925 | -1.65
> COc1cc(NC(=O)c2ccc(CNc3c(N4CCOCC4)c(=O)c3=O)cc2)cc(OC)c1
  1.32 | 1.9
> Cc1ccccc1NS(=O)(=O)c1ccc2c(c1)CCC(=O)N2
  1.04 | 0.85
> CCSc1nnc(Cc2cc(=O)[nH]c(=O)[nH]2)n1-c1cccc(C)c1
  1.11 | 0.459

(next part)
Values run as follows: CBX7 AlphaScr | CBX7 AlphaScr z-score
> O=C(Cc1ccc(NC2=NC3CS(=O)(=O)CC3S2)cc1)NCc1ccccc1Cl (configuration not stated)
  0.833 | -1.83
> O=C(CSc1nc2ncccc2[nH]1)Nc1ccccc1F
  1.22 | 2.1
> COc1cccc(-c2nc(CS(=O)(=O)CC(=O)NC3CCC(C)CC3)c(C)o2)c1 (configuration not stated)
  0.991 | -0.252
> COc1ccc(-c2cc(C(=O)NCCCN3CCCCCC3)c3cc(C(C)C)ccc3n2)cc1
  1.13 | 2.87
> O=C(NCc1nnc(SCc2cccnc2)o1)c1cccs1
  1.05 | 1.49
> CCC(C(=O)NCCc1cc2c(C)ccc(C)c2[nH]c1=O)c1ccccc1 (configuration not stated)
  1.04 | 0.0654
> COCc1nnc(NC(=O)COc2ccc(Cl)cc2)s1
  1.01 | 0.203
> COCCCNC(=O)C1CCC(=O)N(c2ccc3c(c2)OCO3)C1c1ccc(OC)cc1 (configuration not stated)
  0.813 | -2.03
> COc1cccc(-c2nn(C)c3sc(C(=O)NCCCN4CCC(C)CC4)cc23)c1
  0.978 | -0.611
> O=S(=O)(Nc1cccc(-c2nc3cc(Cl)ccc3o2)c1)c1ccccc1
  1.02 | 0.54
> Cc1cccc(OCC(O)Cn2nc(C)cc2C)c1 (configuration not stated)
  1.06 | 1.74
> O=C(NCCN1CCOCC1)c1cc(-c2ccc(Br)cc2)on1
  1.15 | 3.19
> Cc1cc(C)nc(Nc2n[nH]c(-c3ccccc3)n2)n1
  0.815 | -3.65
> CCOc1ccc(OCC)c(NC(=O)Nc2cccs2)c1
  0.913 | -2.33
> CCOC(=O)CNC(=O)c1cc2c(n(-c3ccccc3)c1=O)CCCC2=O
  0.933 | -0.767
> CC(NS(C)(=O)=O)C(c1cccs1)N1CCN(c2ccccc2F)CC1 (configuration not stated)
  1 | 0.0514
> CCc1ccc2nc(N3CCC(C(=O)NCCc4ccccc4)CC3)sc2c1
  1.25 | 0.504
> Cc1oc(-c2ccc(Cl)cc2)nc1CN1CCC(C(=O)N2CCN(C)CC2)CC1
  0.998 | -0.063
> Cc1ccc(-c2ccc(=O)n(CC(=O)N3CCOCC3)n2)cc1
  1.03 | 1.19
> COc1ccccc1C(=O)N1CC(=O)Nc2ccc(C)cc2C1c1ccc(F)cc1 (configuration not stated)
  0.986 | -0.285

Seven of the compounds above, as a markdown table.
| Molecule | CBX7 AlphaScr | CBX7 AlphaScr z-score |
| --- | --- | --- |
| COc1cccc(-c2nc(CS(=O)(=O)CC(=O)NC3CCC(C)CC3)c(C)o2)c1 (configuration not stated) | 0.991 | -0.252 |
| COc1ccc(-c2cc(C(=O)NCCCN3CCCCCC3)c3cc(C(C)C)ccc3n2)cc1 | 1.13 | 2.87 |
| O=C(NCc1nnc(SCc2cccnc2)o1)c1cccs1 | 1.05 | 1.49 |
| CCC(C(=O)NCCc1cc2c(C)ccc(C)c2[nH]c1=O)c1ccccc1 (configuration not stated) | 1.04 | 0.0654 |
| COCc1nnc(NC(=O)COc2ccc(Cl)cc2)s1 | 1.01 | 0.203 |
| COCCCNC(=O)C1CCC(=O)N(c2ccc3c(c2)OCO3)C1c1ccc(OC)cc1 (configuration not stated) | 0.813 | -2.03 |
| COc1cccc(-c2nn(C)c3sc(C(=O)NCCCN4CCC(C)CC4)cc23)c1 | 0.978 | -0.611 |

Continued.
Values run as follows: CBX7 AlphaScr | CBX7 AlphaScr z-score
> Cc1ccc(-n2c(C)nc3c(cnn3-c3ccccc3Cl)c2=O)cc1C
  0.786 | -3.27
> Cc1cccn2c(Nc3ccc4c(c3)OCCO4)c(-c3ccc(O)cc3)nc12
  0.833 | -2.73
> COc1ccc(NC(=O)Cn2cnc3scc(-c4ccccc4)c3c2=O)c(OC)c1
  0.82 | -3.1
> COc1ccc(O)cc1-c1nc2ccccc2nc1-c1ccccc1
  0.64 | -0.478
> CC(O)Cc1nsc(NC(=O)c2cccs2)n1 (configuration not stated)
  1.15 | 1.41
> CCOC(=O)CN1CC23C=CC(O2)C(C(=O)NCc2ccccc2OC)C3C1=O (configuration not stated)
  1.02 | 0.766
> CCc1nnc(NC(=O)C2=CCN(S(=O)(=O)c3ccc(F)cc3)CC2)s1
  1.02 | 0.294
> CCCCc1ccc(NC(=O)Cn2cnc3c(nnn3Cc3ccc(F)cc3)c2=O)cc1
  0.903 | -1.6
> CCOc1ccc2nc(N3CCC(C(=O)N4CCOCC4)CC3)sc2c1
  0.979 | -0.571
> COc1ccc(-c2noc(N(C)CC(=O)NCCC3=CCCCC3)n2)cc1
  0.981 | -0.653
> Cc1nc2ncnn2c(C)c1CCC(=O)Nc1ccccc1F
  1.14 | 2.7
> CCCCN(CC)C(=O)Cn1ncc2c1-c1cc(C)ccc1OC2
  1.11 | 2.86
> COc1ccc(C2C(C(=O)Nc3ccc(F)cc3F)CCC(=O)N2c2ccc(OC)cc2)cc1 (configuration not stated)
  1.17 | 1.52
> Cc1cccc2c1-c1sc(C(=O)N3CCCCC3)cc1CO2
  1.11 | 3.94
> O=C(NC1CCCCCC1)C1CCN(c2nnc(-n3cccc3)s2)CC1
  1.07 | 2.61
> Cc1ccc(-c2nn(CC(=O)NCc3ccccc3Cl)c(=O)c3ccccc23)cc1
  1.05 | 0.727
> CCOC(=O)c1cc(C)n2nc(-c3ccc(Cl)cc3)cc2n1
  0.954 | -1.04
> CCOc1ccc2nc(N3CCCC(C(=O)Nc4cccc(C(F)(F)F)c4)C3)sc2c1 (configuration not stated)
  1.05 | 1.41
> CCN(CC)CCCNC(=O)c1cc(Nc2cccc(SC)c2)nc2ccccc12
  1.23 | 6.43
> Cc1ccc(-c2nc(C3CCN(S(C)(=O)=O)CC3)no2)cc1
  1.26 | 1.5
> Cc1ccccc1NC(=O)NCCCN1CCN(C)CC1
  1.11 | 2.11
> COc1ccc2nc(N3CCCC(C(=O)O)C3)[nH]c2c1 (configuration not stated)
  0.943 | -0.0645
> Cc1ccc(CN2C(=O)CSc3ccc(C(=O)NCCN4CCOCC4)cc32)cc1
  1.07 | 2.86
> Cc1ccn2c(Nc3ccc4c(c3)OCCO4)c(-c3ccc(O)cc3)nc2c1
  0.771 | -3.75
> Cc1onc(-c2ccccc2Cl)c1C(=O)N1CCCC1
  1.03 | 1.11
> Cc1cccc(-c2noc(COc3cc(C)c(Cl)c(C)c3)n2)c1
  1.21 | 2.06
> Cc1ccc2nc(-c3c[nH]c4ccccc34)c(Nc3ccc4c(c3)OCO4)n2c1
  0.924 | -1.64
> O=C(NC1CCCCCCC1)c1cc(=O)[nH]c2ccc(S(=O)(=O)N3CCCCCC3)cc12
  0.907 | -1.02
> CC(NC(=O)C1CCC(Cn2c(=O)[nH]c3ccsc3c2=O)CC1)c1ccccc1 (configuration not stated)
  0.817 | -1.39
> Cc1nc2c(C(=O)O)c[nH]n2c(=O)c1Cc1ccccc1Cl
  1.04 | 1.01
